CtBP-E1A blk – CtBP/E1A binding inhibition; activity change, % (no concentration beside the values); AID 651724; 340,000 tested, 0.49% active; AlphaScreen GST-E1A/His-CtBP binding, 1536-well; hits give low values; control for the full effect not named in the record; in the data active means activity change below about -65%; inconclusive means about -30% to -65%; inactive means above about -30%; further: on the % scale 0 is the no-effect control and ±100 the full control effect; compound concentration not given in the record
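Protein mix (5X: 125 nM each GST-E1A, His-CtBP) was incubated with pinned compound 2 h at 37 deg C in dark, in 50 mM Tris pH 8.0 buffer with 300 mM NaCl. Glutathione donor and nickel acceptor beads followed; AlphaScreen signal read after 1 h.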
PINK1 expr mod – changes PINK1 expression. PINK1 immunofluorescence, high-content cytometry, 24 h. Potency, µM (top dose mostly 76.6 µM), without a hit: at the highest dose activation (PINK1 increase), usual class: activators. 410,000 tested, 0.2% active. AID 624263; active = well fitted activation curve with a large enough effect; inconclusive = small, poorly fitted or top-dose-only effect; inactive = flat fitted curve, though single readings scatter; cell line not stated here;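 further: potency means the concentration at half of the fitted maximal effect; % of control where 0% means no effect; nearly all actives have a fitted effect of over 65% in size; a mitochondrial uncoupler was the plate control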
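A stable cell line was treated with compounds at 5 concentrations for 24 hours, with CCCP as control. PINK1 levels and mitochondrial localization were measured by immunofluorescence with mitochondrial, cell and nuclear markers after fixation, read by laser-scanning cytometry.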
TRPV1 potentiator – enhances activation of the human vanilloid receptor TRPV1. Q8NER1. TRPV1-expressing cells, Fluo-8 calcium influx, capsaicin EC20 potentiation; host cell line not named in the record; control for the full effect not named in the record. potentiation, % at 8.33 µM. 320,000 tested, 0.02% active; active means potentiation above 80%; inconclusive means 30% to 80%; inactive means below 30%; further: 0% is about no effect
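Cells expressing TRPV1 were dye-loaded with Fluo-8 and read kinetically: 10 s baseline, 3 min after compound (agonist portion), then 2 min after EC20 capsaicin (allosteric enhancer portion). Calcium-bound dye fluorescence at 480/520 nm.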
D2 ag – activates the human D2 dopamine receptor; 360,000 tested, 0.084% active; DiscoveRx PathHunter D2 beta-arrestin, luminescence, 90 min; 100% = 57 uM dopamine signal; activation, % (concentration not given with the values); P14416; in the data active = activation above about 40%; inconclusive = about 15% to 40%; inactive = below about 15%; further: compound concentration not given in the record; the text of the record calls up to 30% inactive
Target sequence (P14416 whole entry, looked up): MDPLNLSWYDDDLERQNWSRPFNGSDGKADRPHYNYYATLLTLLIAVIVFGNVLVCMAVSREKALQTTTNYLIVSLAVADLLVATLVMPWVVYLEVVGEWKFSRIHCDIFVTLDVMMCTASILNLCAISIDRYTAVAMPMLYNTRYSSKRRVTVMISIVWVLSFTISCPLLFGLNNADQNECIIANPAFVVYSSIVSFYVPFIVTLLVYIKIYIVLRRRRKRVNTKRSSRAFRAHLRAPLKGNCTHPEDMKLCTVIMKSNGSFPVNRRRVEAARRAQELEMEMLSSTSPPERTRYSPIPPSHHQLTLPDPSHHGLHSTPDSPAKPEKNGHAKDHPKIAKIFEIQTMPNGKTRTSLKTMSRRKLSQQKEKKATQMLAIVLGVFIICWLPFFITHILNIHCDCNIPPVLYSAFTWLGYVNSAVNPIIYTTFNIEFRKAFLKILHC
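DiscoveRx PathHunter D2 beta-arrestin cells (2,100/well) attached overnight, then compound-stimulated 90 min at 37 C in HBSS/10 mM HEPES/0.1% Tween-20 buffer; beta-galactosidase complementation read by luminescence after 1 h at ambient temperature. Dopamine 57 uM final (EC100) as control.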
D2 PAM – potentiates the human D2 dopamine receptor allosterically; P14416; DiscoveRx D2 beta-arrestin cells, luminescence, 90 min; 100% = 57 uM dopamine signal; potentiation, % (concentration not given with the values); 360,000 tested, 0.23% active; active = potentiation of 50% or more; inconclusive = 30% to 50%; inactive = 30% or less;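 further: compound concentration not given in the record; tested on top of an EC20 dose of dopamine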
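PathHunter D2 cells, attached overnight at 37 deg C, received compound in DMSO plus dopamine at EC20 (50 nM final) for 90 min at 37 deg C. Beta-arrestin recruitment was read as luminescence after 1 h with detection reagent at ambient temperature.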
Sfp PPTase inh – inhibitors of Bacillus subtilis Sfp phosphopantetheinyl transferase | Potency, µM, for the others: max response, negative = inhibition, usual class: inhibitors | Q9F4F7 | Biochemical Sfp PPTase activity, qHTS | 310,000 tested, 3.5% active | AID 1490; active means well fitted inhibition curve with a large enough effect; inconclusive means small, poorly fitted or top-dose-only effect, or another doubt; inactive means no such curve, though single readings can be large or run the other way;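 further: the enzyme is Sfp with the accession as filed and its product quenches rhodamine fluorescence; potency means the concentration at half of the fitted maximal effect; 0% = enzyme reaction without inhibitor and -100% = no enzyme wells; top concentration of the series not given in the record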
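Fluorescence-quenching assay with 15 nM Sfp, 5 uM rhodamine-CoA and 12.5 uM BHQ-2-labelled ybbR peptide in pH 7.6 Hepes/MgCl2 buffer. Enzyme was pre-incubated with compound for 15 min at room temperature. Rate was taken from the 30-min fluorescence change (525/598 nm).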
Six1-Eya2 inh – Six1/Eya2 interaction inhibition | 360,000 tested, 0.56% active | AlphaScreen GST-Six1/His-Eya2 binding, biochemical; hits give low values; control for the full effect not named in the record | activity change, % (test concentration not listed); in the data active = activity change below about -65%; inconclusive = about -30% to -65%; inactive = above about -30%; further: on the % scale 0 is the no-effect control and ±100 the full control effect; compound concentration not given in the record
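Compounds are tested against tagged Six1 and Eya2 proteins bridged by glutathione donor and nickel acceptor beads; after a one-hour incubation at 37 °C without light, AlphaScreen emission is recorded.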
* = called active by the depositor; ? = inconclusive; nt = no result given; & = joins results of further samples; [ ] = remark or other dose.

Values run as follows: CtBP-E1A blk | PINK1 expr mod | TRPV1 potentiator | D2 ag | D2 PAM | Sfp PPTase inh | Six1-Eya2 inh
1. CSCCC(NC(=O)c1ccc([N+](=O)[O-])cc1Cl)C(=O)OC(C)C(=O)NCc1ccco1 (centres undefined)
    8 | 0.6% | 6 | 0.1 | -21 | nt | -6
2. CN(C)S(=O)(=O)NCC1CCCN(Cc2ccc(-c3ccccc3)cc2)C1 (centres undefined)
    0 | 0.6% | -8 | -4.4 | -24 | 6% | -1
3. Cc1cccc2c(=O)cc(C)n(CC(=O)N3CCOCC3)c12
    -1 | -0.5% | 1 | -1.0 | -3 | 7% | 5
4. Cc1ccc(C2=C(CC(=O)O)C(=O)CC2)cc1
    34 | 1.4% | -5 | -2.7 | -13 | 10% | 23
5. COc1ccc(NC(=O)Nc2ccc(C(C)C)cc2)cc1
    0 | 0.1% | -2 | 1.2 | -5 | 20% | -6
6. CNC(=S)N/N=C/c1cccc(OCc2ccccc2F)c1
    1 | 2.9% | 14 | -0.6 | -10 | 2% | -14
7. CCn1c(=O)n(CC)c2cc(S(=O)(=O)Nc3c(C)cccc3C)ccc21
    -8 | 0.5% | -9 | 0.4 | -1 | 10% | 20
8. CCOc1ccc(-c2cc(C(=O)O)c3ccccc3n2)cc1
    5 | 6.4%[38.3 µM] | -4 | -3.3 | -8 | -2% | 0
9. CCCn1nnnc1NCc1cccc(OC)c1OC
    3 | 0.1% | 17 | -2.5 | -8 | 9% | -3
10. CC1CCCN(S(=O)(=O)c2ccc(NC(=O)[C@@H]3CCCN3C(=O)c3cccs3)cc2)C1 (some centres undefined)
    -2 | 0.9% | -3 | 2.1 | 1 | nt | -2
11. CCCn1c(SCC(=O)c2cc(OC)ccc2OC)nnc1C(C)C
    1 | 4.5% | -12 | 2.3 | -10 | -27% | 6
12. CN(C)S(=O)(=O)c1ccc(Cl)c(C(=O)NCc2ccco2)c1
    -8 | ? | -1 | -0.3 | -10 | 4% | -12
13. Cc1[nH][nH]c(=O)c1C(c1ccc2c(c1)OCO2)c1c(C)[nH][nH]c1=O
    -11 | -2.0% | 4 | 6.3 | 7 | 6% | ?
14. COC(=O)c1ccccc1S(=O)(=O)N1CCC(C(=O)NC2CCCCC2)CC1
    6 | 0.7% | 8 | -1.2 | 0 | nt | 4
15. CC(C)N1CCC(=NNc2ccc(S(=O)(=O)N3CCOCC3)cc2[N+](=O)[O-])CC1
    0 | 14% | -6 | 3.5 | 25 | -5% | -13
16. Nc1ccc(S(N)(=O)=O)cc1
    -16 | 1.0% | nt | -4.5 | -6 | 21%&2%&14% | 6
17. CCN(CC)C(=O)CSc1nc2ccsc2c(=O)n1CCCC(=O)NCCc1ccc(S(N)(=O)=O)cc1
    nt | -0.7% | -16 | 0.0 | -2 | 11% | -1
18. CCN(CC)S(=O)(=O)c1ccc(C(=O)NCCc2ccccn2)cc1
    -4 | 0.3% | 6 | 1.1 | -9 | 2% | 11
19. O=C(OCC(=O)N(CCc1ccccc1)Cc1ccccc1)c1ccc(F)c(S(=O)(=O)N2CCOCC2)c1
    nt | 2.5% | nt | -1.5 | -2 | nt | 14
20. CCOC(=O)c1ccc(-c2ccc(/C=N/NC(=O)CN(c3cccc(C)c3)S(C)(=O)=O)o2)cc1
    2 | 4.2% | 16 | -3.5 | 6 | 10% | -6
21. COCCNC(=O)Cn1c(=O)n(C)c2ccccc21
    6 | -0.6% | 10 | -2.9 | 6 | 12% | 0
22. O=C(Cn1c(=O)oc2cc(S(=O)(=O)N3CCCC3)ccc21)N1CCCC1
    4 | -0.4% | ? | -2.8 | -8 | 20% | 2
23. CC(C)(C)OC(=O)NNC1CC(=O)N(c2ccccc2F)C1=O (centres undefined)
    4 | -0.5%[38.3 µM] | 23 | -0.9 | -4 | 12% | 8
24. CCN1CCN(c2sc(S(=O)(=O)CC)nc2S(=O)(=O)c2ccc(C)cc2)CC1
    1 | -0.8% | nt | -1.6 | -27 | nt | 6
25. Oc1cccnc1CN1CCCCC1
    5 | -0.3% | nt | -2.7 | -7 | nt | 12
26. CCCC1(C(=O)OC)NC(c2ccc(OC)c(OC)c2)C2C(=O)N(c3cccc(C(C)=O)c3)C(=O)C21 (centres undefined)
    -1 | 0.0% | 5 | -4.6 | 0 | 13% | -12
27. O=C(NC(Cc1ccccc1)c1ccc2c(c1)OCCCO2)c1ccc(F)cc1 (centres undefined)
    1 | 1.6%[38.3 µM] | 22 | -1.7 | -11 | 5% | 3
28. CCCCCCCCOC(=O)c1nc(Cl)c(Cl)c(N)c1Cl
    1 | ? | ? | -2.9 | -8 | 10% | 26
29. CCC(C)[C@H](NC(=O)OC(C)(C)C)C(=O)N/N=C/C1=Cc2ccccc2OC1 (some centres undefined)
    -2 | 1.3%[38.3 µM] | 16 | -2.6 | -8 | 10% | 3
30. Clc1ccccc1C1=Nn2c(nnc2-c2ccncc2)SC1
    -3 | -1.3% | -2 | -1.6 | -19 | 6% | -2

Some entries already given, showing only Six1-Eya2 inh, Sfp PPTase inh and D2 PAM.
#	SMILES	Six1-Eya2 inh	Sfp PPTase inh	D2 PAM
24	CCN1CCN(c2sc(S(=O)(=O)CC)nc2S(=O)(=O)c2ccc(C)cc2)CC1	6	nt	-27
9	CCCn1nnnc1NCc1cccc(OC)c1OC	-3	9%	-8

Going on with the list.
Values run as follows: CtBP-E1A blk | PINK1 expr mod | TRPV1 potentiator | D2 ag | D2 PAM | Sfp PPTase inh | Six1-Eya2 inh
31. O=C1CN(C(=O)COC(=O)c2ccc([N+](=O)[O-])o2)c2ccccc2N1
    -12 | 0.1% | -6 | ? | 4 | nt | 0
32. COc1ccc(S(=O)(=O)N2CCN(CCOc3ccccc3Cl)CC2)cc1OC
    -24 | 0.5% | -18 | 2.7 | -3 | nt | -8
33. CCCNC(=O)C1(C)CCCN(C/C=C/c2ccccc2)C1 (centres undefined)
    2 | -0.6% | nt | -4.9 | -16 | nt | 5
34. O=[N+]([O-])c1ccc(S(=O)(=O)N2CCN(c3ccnc4cc(Cl)ccc34)CC2)cc1
    -8 | -1.2% | -23 | 3.2 | 10 | 9% | -9
35. CCC(C(=O)OCC(=O)Nc1cc(C)ccc1OC)c1ccccc1 (centres undefined)
    -12 | 9.7% | -1 | -0.1 | -5 | 0% | 18
36. COc1ccc(C(=O)NCC(=O)N2CCN(C(=O)c3ccco3)CC2)cc1
    7 | 1.1% | -7 | -6.0 | 1 | 17% | 5
37. N/C(=N\OC(=O)Cc1ccccc1)c1ccc([N+](=O)[O-])cc1
    -17 | 0.0% | 6 | 4.5 | 8 | 0% | -20
38. CCO[C@H]1OC(C(=O)N2CCCCCCC2)=C[C@@H](c2coc3ccccc3c2=O)[C@@H]1CCCO
    3 | -1.3% | -17 | -1.6 | -4 | 11% | 9
39. COc1ccc(S(=O)(=O)N2CCOC2CNC(=O)C(=O)NCCc2ccccc2OC)cc1 (centres undefined)
    4 | 1.1% | ? | -1.0 | -4 | 11% | 0
40. COc1ccc(CN2CCCC(N3CCc4ccccc4C3)C2)c(O)c1 (centres undefined)
    -2 | -0.3% | 16 | -1.0 | -5 | ? | -5
41. N#CC(CCc1ccc([N+](=O)[O-])cc1)(CCc1ccc([N+](=O)[O-])cc1)C(N)=O
    ? | -1.6% | nt | 2.4 | -1 | nt | ?
42. Cc1cc(Cl)cc(Cl)c1OCCOCCN(C)C
    16 | 1.4% | -7 | -5.4 | -26 | -20% | 1
43. O=C(Cc1n[nH]c(=O)c2ccccc12)Nc1cc(Cl)ccc1-n1cncn1
    1 | 3.3% | 6 | -2.9 | -1 | nt | -7
44. Cc1cccc(-c2sc(Nc3ccccc3)n[n+]2-c2ccc(F)cc2)c1
    3 | -0.8% | -28 | -3.9 | -18 | 16% | 6
45. CC(C)C[C@H]1CN(CCCC[C@H]2CNC(=O)C(=O)N2CCC2CCCCC2)C(=O)C(=O)N1CC1CCCCC1
    8 | 5.3% | nt | nt | nt | nt | 1
46. COc1ccc(NC(=O)NCc2ccncc2)c(OC)c1
    -4 | nt | -6 | -0.5 | -32 | 20% | -3
47. O=C(CN1C(=O)c2ccc([N+](=O)[O-])cc2C1=O)Nc1ccccc1N1CCCC1
    0 | 0.6% | -1 | 4.8 | ? | nt | -3
48. S=c1nc(NCCc2ccccc2Cl)c2ccccc2[nH]1
    -3 | 0.3% | 5 | -0.1 | -4 | -2% | 4
49. Nc1cc(N)nc(CS)n1
    2 | -0.3% | 7 | 1.0 | -5 | 14% | 1
50. CC(=O)c1ccc(OCc2nnn(CC(=O)O)c2-c2ccccc2)cc1
    10 | 3.6% | nt | -3.2 | -6 | nt | 9
51. CC1(C(=O)Nc2cccc3ccccc23)CCN1C(=O)Cc1ccccc1Cl (centres undefined)
    1 | 1.5% | nt | 3.7 | -5 | nt | -3
52. CCN(CC)S(=O)(=O)c1cccc(-c2cn3cc(C)ccc3n2)c1
    1 | -2.1% | 8 | 0.4 | 16 | -20% | -8
53. Cc1nnc(SCC(=O)Nc2cccc(S(=O)(=O)N3CCCCC3)c2)s1
    nt | -0.8% | -26 | -4.8 | -7 | nt | 0
54. COc1cccc(C(c2nnnn2Cc2ccccc2)N2CCN(C3CCCC3)CC2)c1OC (centres undefined)
    0 | 2.3% | 12 | -1.7 | -18 | 3% | 0
55. Cc1cc(C)c(NC(=S)N(C)C)cc1C
    nt | 1.3% | -10 | -5.1 | -19 | 9% | 1
56. CC(=O)N1c2ccccc2NC2=C(C(=O)CCC2)C1c1ccco1 (centres undefined)
    0 | 3.5% | 2 | -4.5 | 5 | 25µM* | 3
57. CCN(CC(=O)Nc1cc(Cl)ccc1C)C(=O)CCOc1ccccc1C
    2 | 0.1% | -2 | -2.7 | -36 | 4% | 3
58. CCn1c(SC(C)C(=O)O)nc2sc3c(c2c1=O)CCC3 (centres undefined)
    3 | -3.1% | 8 | -1.8 | -9 | 10% | 0
59. CC1CCc2cc(F)cc3c(O)c(C(=O)NCCN(C)C)c(=O)n1c23 (centres undefined)
    nt | 0.1% | 3 | -8.5 | -6 | 0% | -8
60. CCc1cc2cc(C)ccc2nc1SCC(=O)Nc1cc(C)on1
    -2 | 18% | 7 | 0.6 | -5 | 4% | 6
61. CC(C)(C)c1ccc2c(c1)OC(C(=O)N/N=C\c1ccc[nH]1)CO2 (centres undefined)
    -28 | ? | 9 | -2.7 | -24 | 9% | -26

Screens from PubChem BioAssay.

Compounds were not picked by outcome; 3.7% or so of the library scored in one or more.
